# Assay outcomes deposited in PubChem by Johns Hopkins Ion Channel Center.
# KCNQ2 inh: KCNQ2 channel blockers in CHO-K1 cells – cell-based, FluxOR thallium flux, B-score, primary screen (AID 2156) | B-score at 10 µM | 310,000 compounds, 1.1% hits | O88943 | 20 min; stronger effect = lower value; only compounds with negative scores are shown here; some inactives read as strong as hits;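 active means fluorescence ratio B-score at most minus 3 library SDs, with starting brightness B-score within 2 library SDs, cut at about -5.5 in these data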
# Target sequence (O88943 whole entry, looked up): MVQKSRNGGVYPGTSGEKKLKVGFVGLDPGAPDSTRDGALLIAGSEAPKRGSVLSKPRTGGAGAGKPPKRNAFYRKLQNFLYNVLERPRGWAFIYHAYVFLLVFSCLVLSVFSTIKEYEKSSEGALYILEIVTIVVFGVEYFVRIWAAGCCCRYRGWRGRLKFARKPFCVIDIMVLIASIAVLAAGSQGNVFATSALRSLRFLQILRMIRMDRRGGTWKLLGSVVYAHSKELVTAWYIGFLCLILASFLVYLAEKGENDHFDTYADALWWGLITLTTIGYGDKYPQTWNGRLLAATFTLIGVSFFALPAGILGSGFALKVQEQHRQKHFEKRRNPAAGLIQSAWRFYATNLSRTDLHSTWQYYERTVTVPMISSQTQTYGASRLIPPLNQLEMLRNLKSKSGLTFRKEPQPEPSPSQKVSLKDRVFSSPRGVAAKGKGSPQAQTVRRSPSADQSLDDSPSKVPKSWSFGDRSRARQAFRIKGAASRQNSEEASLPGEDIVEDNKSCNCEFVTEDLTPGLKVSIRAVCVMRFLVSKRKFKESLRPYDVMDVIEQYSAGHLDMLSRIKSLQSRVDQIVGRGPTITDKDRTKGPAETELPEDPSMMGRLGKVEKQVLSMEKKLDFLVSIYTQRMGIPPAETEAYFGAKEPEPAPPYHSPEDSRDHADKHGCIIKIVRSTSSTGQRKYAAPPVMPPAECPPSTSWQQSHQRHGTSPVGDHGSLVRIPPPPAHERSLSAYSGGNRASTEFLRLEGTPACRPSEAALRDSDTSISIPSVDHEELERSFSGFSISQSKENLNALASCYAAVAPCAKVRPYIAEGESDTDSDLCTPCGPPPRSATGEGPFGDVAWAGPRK
# KCNQ2 inh baseline: further read-out of KCNQ2 inh, marked with its call; B-score; measured here: initial fluorescence intensity artifact check;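 brightness before thallium and not channel activity; 0 = typical well and far values either way flag optical interference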
# The depositor's hits bear a star; i = inactive.
structure	KCNQ2 inh	KCNQ2 inh baseline
CCCCC(CC)C(=O)Nc1ccc(S(=O)(=O)N2CCCC2)cc1 (stereo not given)	i	0.93
Cc1ccc(SCC2(O)CCN(S(=O)(=O)c3ccc(Cl)cc3)CC2)cc1	i	0.31
CCSc1nc2ccccc2n1Cc1nc(N)nc(N(C)C)n1	i	0.42
CC1CCc2nc3ccc(S(=O)(=O)N4CCC(C(=O)N5CCCCCC5)CC4)cc3c(C(=O)O)c2C1 (stereo not given)	i	0.02
COc1ccc(C)cc1Nc1n[n+](-c2ccccc2)c(-c2cc(OC)c(OC)cc2Br)s1	-6.4*	-0.75*
CSCCC(NC(=O)c1ccco1)C(=O)N1CCCCCCC1 (stereo not given)	i	-1.9
O=C(CSc1nnc2ccccn12)Nc1ccc(S(=O)(=O)N2CCOCC2)cc1	i	0.08
CC(C)NC(=O)c1nn2c(C(F)(F)F)cc(-c3ccco3)nc2c1Cl	i	-1.8
O=C(NCc1ccccc1)N1CCC(Cc2ccccc2)CC1	i	-0.75
Cc1ccccc1NC(=O)CSc1nc(Nc2ccccc2)nc(N2CCOCC2)n1	i	-0.24
O=C(N/N=C/c1c[nH]c2ccccc12)c1cc(-c2ccc(-c3ccccc3)cc2)n[nH]1	i	-0.78
O=C(CCS(=O)NCc1ccccc1)NCc1ccccc1 (stereo not given)	i	0.59
CC(C)c1csc(CN2CCC(CO)(Cc3cccc(F)c3)CC2)n1	i	0.33
CCOC(=O)C1=C(C)N=c2s/c(=C\c3ccc(O)c([N+](=O)[O-])c3)c(=O)n2C1c1ccccc1OC (stereo not given)	-7.2*	-0.68*
CCOc1ccc(C(=O)CCC(=O)NC2=NCCS2)cc1	i	-0.01
Cc1ccc(Nc2nnc(SCC(=O)N(C)C3CCS(=O)(=O)C3)s2)cc1 (stereo not given)	i	0.01
Cc1ccc(NC(=O)N(C2=NCC(C)S2)c2ccccc2)cc1 (stereo not given)	i	0.13
Cc1cc(C)n2nc(S(=O)(=O)NCCc3ccccc3)nc2n1	i	-1.5
COc1ccc(S(=O)(=O)Nc2ccc3c(c2)OCCO3)cc1Cl	i	-2.4
COc1cc(OC)c(NC2=CC(=O)C(=O)c3ccccc32)cc1Cl	i	-0.99
COc1ccc(S(=O)(=O)NCc2ccco2)cc1-c1nnc2c3ccccc3c(C)nn12	i	-0.53
CC1(C)CC(=O)C2=C(C1)N1C(=C(C#N)C2c2ccc(Cl)cc2)N=C(N)c2ccccc21 (stereo not given)	i	-1.5
O=C(O)CCN1C(=O)/C(=C\c2ccncc2)SC1=S	i	0.79
Nc1c(C(=O)Nc2ccccc2)sc2ncc([N+](=O)[O-])cc12	i	-0.87
CCCn1nnnc1NC(=O)c1cc(Br)ccc1OC	i	-2.2
CCCC(C(=O)NC(C)(C)CC)N(CC1CCCO1)C(=O)CNS(=O)(=O)c1ccc(F)cc1 (stereo not given)	i	1.2
Cc1cc(N/N=C/c2ccc(Cl)cc2Cl)nc(NCc2ccccc2)n1	i	0.64
CCN1CCN(C(=S)Nc2ccc(C(C)=O)cc2)CC1	i	0.02
CCCCC(=O)NC(NC(=S)N1CCOCC1)C(Cl)(Cl)Cl (stereo not given)	i	0.67
COCCn1c(=O)[nH]c2cc(C(=O)Nc3nnc(C)s3)ccc21	i	-0.85
COc1ccc(NC(=O)C2CCCN(c3c4c(nc5ncnn35)CCC4)C2)cc1OC (stereo not given)	i	1.9
Oc1ccccc1/C=N/NC(=S)NC1CC2CCC1C2 (stereo not given)	i	3.2
Cc1ccc(NC(=O)C2CC(=O)Nc3nncn32)cc1 (stereo not given)	i	0.86
CCCCNC(=O)C1CCN(Cc2ccc(OCc3ccccc3)cc2)CC1	i	0.43
COC(=O)C1=C(CN2CCCc3ccccc32)NC(=O)NC1c1ccc(F)cc1 (stereo not given)	i	0.61
COc1cc(/C=C2\SC(=S)N(c3cccnc3)C2=O)ccc1O	i	-0.63
COc1cc2c(cc1OC)CN(c1nc(CN3CCCCC3)nc3sc4c(c13)CCCC4)CC2	i	-0.02
CN(c1ccc(F)cc1)S(=O)(=O)c1ccc(Cl)c(C(=O)Nc2ccc3c(c2)CCC3)c1	i	0.46
Cc1ccc(C)c(N2N=C(C(=O)N(CC(C)C)c3c(N)n(Cc4ccccc4)c(=O)[nH]c3=O)CCC2=O)c1	i	0.5
O=C(O)CCCN1C(=O)/C(=C\c2ccc(-c3nc4ccccc4s3)o2)SC1=S	i	0.85
CCN(CC)S(=O)(=O)c1ccc(C(=O)Nc2cc3oc4ccccc4c3cc2OC)cc1	i	0.05
CS(=O)(=O)c1ccc(Cl)c(NC(=O)C2CCCN(C(=O)c3ccc(Cl)cc3)C2)c1 (stereo not given)	i	-0.29
O=C(c1ccccc1)N1CCN(C(=O)C2CC2)CC1	i	1.7
CC(=O)C1=C(O)C(=O)N(Cc2ccco2)C1c1ccc(F)cc1 (stereo not given)	i	1.2
Cn1c(=O)c2ncn(CC(=O)Nc3ccc4c5c(cccc35)CC4)c2n(C)c1=O	i	0.3
CCCCn1c(N)c(N(Cc2ccccc2OC)C(=O)c2sccc2C)c(=O)[nH]c1=O	i	0.66
O=C(O)C1CCCNC1 (stereo not given)	i	0.16
N#Cc1ccc(COC(=O)c2ccc(N3CCCC3)c([N+](=O)[O-])c2)cc1	-6.8*	1.6*
COc1ccc(C(=O)NC(=S)Nc2ccccc2N2CCOCC2)cc1[N+](=O)[O-]	i	0.14
CCOc1ccc(N2CC(C(=O)NCc3ccccc3)CC2=O)cc1 (stereo not given)	i	-0.01
CC1=C(C(=O)Nc2cccc(C(=O)NC(C)C)c2)SCCO1	i	0.74
Cc1nnc(SCCC(=O)Nc2ccccc2Cl)o1	i	1.1
C=CCn1c(=O)c(C(=O)NCCN(CC)CC)c(O)c2ccccc21	i	1
CNC(=O)/C(C#N)=C/c1c(N2CCN(c3cccc(Cl)c3)CC2)nc2c(C)cccn2c1=O	i	0.33
CCOC(=O)N1CCC(N(CCOC)C(=S)Nc2cccc(SC)c2)CC1	i	0.02
O=[N+]([O-])c1ccc(OCCCn2cncn2)cc1	i	-0.67
Cc1ccc(-c2nc(CS(=O)(=O)CC(=O)NC3CCCCC3C)c(C)o2)cc1 (stereo not given)	i	-0.13
Cc1ccc([N+](=O)[O-])c(C)[n+]1C	i	0.05
COC(=O)c1ccc(C2/C(=C(/O)c3ccc4c(c3)CC(C)O4)C(=O)C(=O)N2CCN2CCOCC2)cc1 (stereo not given)	i	0.54
Cc1ccnc(NC(=O)CCC2COc3ccccc3O2)c1 (stereo not given)	i	0.64

# Ordered by the number under KCNQ2 inh baseline (falling): four of the compounds above
structure	KCNQ2 inh	KCNQ2 inh baseline
Cc1nnc(SCCC(=O)Nc2ccccc2Cl)o1	i	1.1
C=CCn1c(=O)c(C(=O)NCCN(CC)CC)c(O)c2ccccc21	i	1
Cc1ccnc(NC(=O)CCC2COc3ccccc3O2)c1 (stereo not given)	i	0.64
O=[N+]([O-])c1ccc(OCCCn2cncn2)cc1	i	-0.67

# Carrying on:
structure	KCNQ2 inh	KCNQ2 inh baseline
COc1ccccc1C(c1nnnn1CC1CCCO1)N1CCN(c2ccccc2)CC1 (stereo not given)	i	1.4
CCN(CC)C(=O)Cn1c(=O)n(CCCCCC(=O)Nc2ccccc2)c(=O)c2sccc21	i	1.6
CN(C)c1nc(NCc2ccccc2)nc(N/N=C/c2cccc(Br)c2)n1	i	0.26
CC12CN3CC(C)(CN(C1)C3c1ccc(Cl)cc1)C2 (stereo not given)	i	0.5
COc1ccccc1NC(=O)CSc1nc(N)c(-c2ccccc2)c(=O)[nH]1	i	0.56
CC1(C)OC(=O)N(c2ccccc2)C12C=Cc1cc(Br)ccc1O2 (stereo not given)	i	0.38
Cc1cc2nncn2c2ccccc12	i	-0.1
O=C(COC(=O)c1ccc(S(=O)(=O)N2CCCC2)cc1)NCc1ccco1	i	0.61
Cc1nc2cc(C(=O)NCc3cccnc3)ccc2n1-c1ccc(F)cc1F	i	1.4
COc1ccc(S(=O)(=O)N2CCCC(C(=O)N3CCOCC3)C2)cc1OC (stereo not given)	i	-2
Cc1ccc(-n2c([S-])c(C(=O)Nc3ccc(OC(F)F)cc3)[n+]3ccc(C(=O)NCCO)cc23)cc1C	i	0.73
CC(C)c1ccc(CN2CCSCC2)cc1	i	1.8

# 2 entries from above, with values under each structure.
# Second line of a record – KCNQ2 inh | KCNQ2 inh baseline
COc1ccccc1C(c1nnnn1CC1CCCO1)N1CCN(c2ccccc2)CC1 (stereo not given)
    i | 1.4
CCN(CC)C(=O)Cn1c(=O)n(CCCCCC(=O)Nc2ccccc2)c(=O)c2sccc21
    i | 1.6

# Carrying on.
structure	KCNQ2 inh	KCNQ2 inh baseline
O=c1[nH]c(S)c(/C=C2\C=Nc3ccccc32)s1	i	2.9
CC(=O)C(Sc1ccc2nnc(-c3cccnc3)n2n1)C(C)=O	i	1.3
COc1ccccc1N(CC(=O)NC1CCCCC1)S(=O)(=O)c1cccs1	i	1.6
Brc1ccccc1-n1nnc(-c2ccnc3ccccc23)n1	i	-0.89
CCCc1[nH]nc2c1C(c1cccc(OC)c1)C(C#N)=C(N)O2 (stereo not given)	i	-0.03
Cc1ccc(C(=O)OCC(=O)N2CC(C)CC(C)C2)cc1S(=O)(=O)N1CCCCC1 (stereo not given)	i	1.4
CN(Cc1cnccn1)Cc1nc(Cc2ccccc2Cl)no1	i	0.05
COc1ccc(S(=O)(=O)N2c3cc(C)ccc3OCC2C(C)(C)C)cc1 (stereo not given)	-5.5*	-0.36*
c1ccc2c(c1)Cn1c-2nc2ccccc21	i	-1.6
Cc1cc2cc(CCNC(=O)c3ccc(C)c([N+](=O)[O-])c3)c(=O)[nH]c2cc1C	i	1.8
CC(C)Oc1ccc(CNC(=O)CCC(=O)N2CC(C)Sc3ccccc32)cc1 (stereo not given)	i	0.03
Cc1cc(C)c2c(N)c(C(=O)c3ccccc3)sc2n1	i	1.7
Cc1cc2n(n1)SC(Nc1ccccc1)N2 (stereo not given)	i	1.5
N#CC1=C(N)SC(N)=C(C#N)C1CCc1ccccc1	i	0.56
Cc1[nH]c2ccccc2c1C(=O)C(=O)N1CCN(c2ccccc2)CC1	i	-0.57
COC(=O)C1=C(C)N(Cc2ccccc2)C(=NCCCCO)N[C@H]1CCc1ccccc1	i	-1.3
CC1CCCC(N2CCN(C(=O)c3ccccc3F)CC2)C1 (stereo not given)	i	-2.1
CCCC(=O)Nc1ccc(-c2nc3cc(C)c(C)cc3o2)cc1	i	1.2
CCOc1ccc(C2C(C(=O)C3CC3)N3C=C(C#N)C=CC3C2(C#N)C#N)cc1 (stereo not given)	i	0.63
CCN(C(=O)CSc1nnc(-c2ccncc2)n1Cc1ccccc1)C1CCS(=O)(=O)C1 (stereo not given)	i	0.11
Cc1csc(NC(=O)c2cc(C)oc2C)n1	i	2.5
CCOc1cc(CNC(C)(C)CO)cc(Br)c1OCc1ccc(Cl)cc1Cl	-7.7*	-1.1*
Cc1ccc(-c2ccc(=O)n(Cc3cccc(Br)c3)n2)cc1	i	1.2
CCc1ccc(NC(=O)C/C(C)=N/NC(=O)COc2ccccc2C)cc1	i	0.39
Cc1ccc(C(=O)NC2CCN(C(=O)Nc3ccccc3)CC2)cc1	i	-1.3
COc1ccc(-c2nnc(SC(C)C(=O)Nc3nccs3)n2Cc2ccccc2)cc1OC (stereo not given)	i	-0.73
O=c1oc2cc(OCCO)ccc2c2c1CCCC2	i	-0.08
CC1CCN(CCCNC(=O)c2ccc3c(Cl)c4c(nc3c2)CCCC4)CC1	i	-1.5
CC(C)COc1ccc(CNC(=S)NCc2ccccc2)cc1	i	-0.11
Cc1ccc(C)c(S(=O)(=O)N2CCN(C(=O)CCNC(=O)c3ccc(Br)cc3)CC2)c1	i	1.2
COC(OC)c1ccnc(-c2ccc(OC(=O)c3cccs3)cc2)n1	i	0.03
O=C(c1ccc(S(=O)(=O)c2ccccc2Cl)c([N+](=O)[O-])c1)N1CCCCCC1	i	0.1
CCCCNCCOCCOc1ccc(C)cc1[N+](=O)[O-]	i	0.5
COc1cc(N/N=C/c2ccc(N(C)C)cc2)ncn1	i	-2.2
COc1cc(NC(=S)NC(C)(C)C)c(OC)cc1Cl	i	-0.18
Nc1nnc(-c2ccc(Cl)cc2)o1	i	-0.1

# In a second layout: results already given.
SMILES: COc1cc(N/N=C/c2ccc(N(C)C)cc2)ncn1
- KCNQ2 inh = i
- KCNQ2 inh baseline = -2.2

SMILES: CC1CCN(CCCNC(=O)c2ccc3c(Cl)c4c(nc3c2)CCCC4)CC1
- KCNQ2 inh = i
- KCNQ2 inh baseline = -1.5

SMILES: COC(OC)c1ccnc(-c2ccc(OC(=O)c3cccs3)cc2)n1
- KCNQ2 inh = i
- KCNQ2 inh baseline = 0.03

SMILES: Cc1ccc(C)c(S(=O)(=O)N2CCN(C(=O)CCNC(=O)c3ccc(Br)cc3)CC2)c1
- KCNQ2 inh = i
- KCNQ2 inh baseline = 1.2

# Other results
structure	KCNQ2 inh	KCNQ2 inh baseline
COc1ccc(Cc2nc3ccc(C(=O)N4CCOCC4)cc3o2)cc1	i	-0.94
COc1cc(CNC(C)c2ccccc2)cc(Br)c1OCc1ccc(F)cc1 (stereo not given)	i	0.78
O=C(CSc1nnc2ccccn12)NNC(=O)c1ccc(Cl)cc1	i	-0.79
Cc1ccc(NC(=O)CC(NCC2CCCO2)C(=O)O)cc1C (stereo not given)	i	2.7
CCOC(=O)N1CCN(c2nc(-c3ccco3)cc(C(F)(F)F)n2)CC1	i	1.2
CN(C)S(=O)(=O)c1ccc(C(=O)Nc2ccccc2OC(F)(F)C(F)F)cc1	i	1.2

# Only part of the results is shown; the hit share may differ from the screen's.
